RE007 growth inh – less growth of the S. pombe RE007 Vpr strain. S. pombe RE007 Vpr strain, BacTiter-Glo ATP luminescence, 24 h; control for the full effect not named in the record. Potency, µM (highest dose often 92.2 µM), without a hit: at the top dose activity change, negative = less growth. AID 651644. 0.21% of 360,000 active; active = well fitted falling curve with a large enough effect; inconclusive = small, poorly fitted or top-dose-only effect; inactive = no such curve, though single readings can be large or run the other way;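 also: % is scaled to controls: 0 for no effect and ±100 for the full control effect; nearly all actives have a fitted effect of over 50% in size; the assay follows cell death caused by Vpr and the record does not say whether a fall means rescue or toxicity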
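Fission yeast strain RE007, carrying one chromosomally integrated HIV-1 vpr copy, was seeded at OD 0.01 in PMG+AL medium with 23 nL pinned compound. After 24 h at 30 °C and 99% humidity, viability was read by BacTiter-Glo luminescence.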
Cruzain Triton – blocks cruzain activity in presence of Triton detergent | 0.43% of 200,000 active | AID 1478 | Potency, µM, without a hit: max response, negative = inhibition, usual class: inhibitors | purified cruzain, Z-FR-AMC fluorescence, 0.01% Triton;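 also: plate controls were neutral wells for no effect and buffer without enzyme for full effect; nearly all actives have a fitted effect of over 40% in size; top concentration of the series not given in the record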
Target sequence (P25779 123-467 limits assumed): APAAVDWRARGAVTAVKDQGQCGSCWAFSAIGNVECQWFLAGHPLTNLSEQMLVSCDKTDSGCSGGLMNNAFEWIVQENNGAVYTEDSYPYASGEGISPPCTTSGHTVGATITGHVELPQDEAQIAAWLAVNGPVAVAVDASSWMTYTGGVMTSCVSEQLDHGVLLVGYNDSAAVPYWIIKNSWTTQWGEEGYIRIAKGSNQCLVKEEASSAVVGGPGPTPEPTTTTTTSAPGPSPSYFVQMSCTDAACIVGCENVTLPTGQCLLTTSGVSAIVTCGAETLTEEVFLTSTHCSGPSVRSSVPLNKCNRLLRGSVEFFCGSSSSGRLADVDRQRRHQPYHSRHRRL
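Enzyme 1.5 nM, Z-FR-AMC 2 uM, NaOAc 100 mM pH 5.5, DTT 5 mM, Triton X-100 0.01%; 15 min RT compound preincubation; kinetic ex360/em450, 60 s delta.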
StopGo reporter – lowers the luciferase signal of an FMDV 2A StopGo reporter. 1.2% of 410,000 active. human cells with a luciferase reporter of 2A StopGo recoding; control for the full effect not named in the record. Potency, µM (titrated, usually from 57.9 µM), without a hit: at the top dose signal change, negative = less light; active = well fitted falling curve with a large enough effect; inconclusive = small, poorly fitted or top-dose-only effect; inactive = no such curve, though single readings can be large or run the other way; tested in HEK293T cells; also: % is scaled to controls: 0 for no effect and ±100 for the full control effect; nearly all actives have a fitted effect of over 45% in size; luciferase light after 4 h
Marburg entry inh – inhibitors of Marburg virus binding or cell entry | Marburg virus pseudotyped entry inhibition, cell reporter; control for the full effect not named in the record; about a third of the inactives were read at about 46 µM | Potency, µM (top dose mostly 37.8 µM), for inactives: at the top dose activity change, negative = inhibition, most hits filed as inhibitors | 1.8% of 300,000 active; active = well fitted inhibition curve with a large enough effect; inconclusive = small, poorly fitted or top-dose-only effect, or effect the other way; inactive = flat fitted curve, though single readings scatter; tested in HEK293 cells; about a fifth of its hits are not listed in these tables; also: % is scaled to controls: 0 for no effect and ±100 for the full control effect; luciferase read-out
LASV entry inh – blocks Lassa virus binding to or entry into cells. Lassa virus pseudotype entry inhibition, cell reporter; control for the full effect not named in the record. Potency, µM (doses to about 37.9 µM), inactives show top-dose activity change, negative = inhibition, hits mostly inhibitors. 1.2% of 300,000 active. AID 540256; active means well fitted inhibition curve with a large enough effect; inconclusive means small, poorly fitted or top-dose-only effect, or effect the other way; inactive means flat fitted curve, though single readings scatter; tested in HEK293 cells; also: % is scaled to controls: 0 for no effect and ±100 for the full control effect; nearly all actives have a fitted effect of over 50% in size; luciferase read-out
NS1 inh – blocks influenza NS1 protein function; S. cerevisiae slowed by influenza A NS1, growth recovery by OD600; AID 2326; Potency, µM (series often up to 46.1 µM), for inactives: at the top dose activity, positive = more growth; 0.4% of 270,000 active; active means well fitted rising curve with a large enough effect; inconclusive means small, poorly fitted or top-dose-only effect; inactive means no such curve, though single readings can be large or run the other way; also: nearly all actives have a fitted effect of over 50% in size
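A cell-based growth assay was used: compounds that relieve NS1-induced slow growth of budding yeast raise OD600. Assay medium was yeast nitrogen base with ammonium sulphate and -URA supplement, pH 6.0, with 2% galactose.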
SARS PLP yeast – inhibitors of SARS-CoV papain-like protease in yeast. 0.19% of 330,000 active. S. cerevisiae expressing SARS-CoV PLpro, growth rescue; control for the full effect not named in the record. Potency, µM (titrated, usually from 32.9 µM), inactives show top-dose activity, positive = growth rescue; active means well fitted rising curve with a large enough effect; inconclusive means small, poorly fitted or top-dose-only effect; inactive means no such curve, though single readings can be large or run the other way; also: 0% is about no effect; nearly all actives have a fitted effect of over 55% in size; growth read by luminescence after 48 h
Cruzain noTriton – cruzain (T. cruzi) inhibition without detergent; purified cruzain, Z-FR-AMC fluorescence, no detergent; Potency, µM, inactives show max response, negative = inhibition, hits mostly inhibitors; 2.3% of 200,000 active; AID 1476;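 also: plate controls were enzyme without inhibitor for no effect and buffer without enzyme for full effect; nearly all actives have a fitted effect of over 40% in size; top concentration of the series not given in the record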
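Detergent-free condition (0.00005% Triton X-100) in acetate buffer pH 5.5 with DTT. 1.5 nM enzyme and compound were pre-mixed 15 min, then 2 uM Z-FR-AMC substrate added; reaction progress from fluorescence change between first and third reads (60 s).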
Numbers without * were called inactive; & = joins results of further samples; [ ] = dose if it differs, or a comment. Unless noted, calls follow the shape of the dose curve; as a rule, active = well fitted curve in the direction sought with a large enough effect; inconclusive = small, poorly fitted or top-dose-only effect, or another doubt; inactive = no such curve, though single readings can be large; an effect the other way counts as inactive or inconclusive. Potency is read from the fitted curve at half-maximal effect.

How did CCOC(=O)Cn1c2[n+](c3ccccc31)CC(O)CS2 (stereo not drawn) do in these assays?
RE007 growth inh: 6.9%; Cruzain Triton: 3.8%; Marburg entry inh: 8.0%; LASV entry inh: inconclusive; NS1 inh: 0.1%; SARS PLP yeast: -0.4%; Cruzain noTriton: -3.4%

What do the screens show for `CCOC(=O)CSc1nc2cc(C(=O)NCc3ccco3)ccc2c(=O)n1-c1ccc(F)cc1`?
RE007 growth inh: -2.0%; Cruzain Triton: -1.2%; StopGo reporter: -17.4%; Marburg entry inh: inconclusive; LASV entry inh: -2.1%; NS1 inh: inconclusive; SARS PLP yeast: 2.5%; Cruzain noTriton: 10µM*

Results for O=C(CNc1ccccc1F)Nc1cccc2ccccc12 ?
RE007 growth inh: -11.3%; StopGo reporter: 1.9%; Marburg entry inh: -3.7%[46.1 µM]; LASV entry inh: 4.6%; NS1 inh: 3.8%; SARS PLP yeast: 4.4%

Results for CC(C)CCNC(=O)C1c2ccccc2Oc2ccccc21 ?
RE007 growth inh: 22.1%; StopGo reporter: -12.7%; Marburg entry inh: 21.1%[46.1 µM]; LASV entry inh: inconclusive; NS1 inh: 7.9%; SARS PLP yeast: -0.8%

Results for CCOC(=O)C1CCCN(Cc2ccc(OC)c(OCc3ccccc3)c2)C1 (stereo not drawn) ?
RE007 growth inh: 0.8%; StopGo reporter: -27.7%; NS1 inh: -11.9%; SARS PLP yeast: 4.7%

What do the screens show for `Cc1ccccc1C(=O)NCC(=O)OC(C)C(=O)Nc1ccnn1C(C)C` (stereo not drawn)?
RE007 growth inh: -4.3%; StopGo reporter: -15.9%; Marburg entry inh: -2.6%; LASV entry inh: 2.6%; SARS PLP yeast: 2.1%

What do the screens show for `Cc1ccc(NC(=O)Cc2noc3ccccc23)c(C)c1`?
RE007 growth inh: 33.9%; Cruzain Triton: 0.1%; StopGo reporter: 28.4%; Marburg entry inh: 28.0%; LASV entry inh: 18.7%; NS1 inh: -6.6%; SARS PLP yeast: -35.4%; Cruzain noTriton: 12.6%

How did COC(=O)C1(Cc2ccc(O)cc2)OC(=O)C(O)=C1c1ccc(O)cc1 (stereo not drawn) do in these assays?
RE007 growth inh: 5.9%; StopGo reporter: -5.5%; NS1 inh: 2.7%; SARS PLP yeast: 1.0%

What do the screens show for `N#C/C(=C\c1ccncc1)c1nc2ccccc2c(=O)[nH]1`?
RE007 growth inh: -17.7%; StopGo reporter: 15.0%; Marburg entry inh: inconclusive; LASV entry inh: 11.6%[46.1 µM]; NS1 inh: 4.1%; SARS PLP yeast: 3.2%

Results for O=C(C/C=N\OCc1c(Cl)cccc1Cl)Oc1ccc(Cl)cc1Cl ?
RE007 growth inh: -11.5%; Cruzain Triton: -7.6%; StopGo reporter: -9.9%; Marburg entry inh: -1.6%; LASV entry inh: 7.1%; NS1 inh: 8.3%; SARS PLP yeast: -6.5%; Cruzain noTriton: -8.3%

How did Cc1ccc(N(C(=O)CCCC(=O)Nc2ccccn2)C(C(=O)NC2CCCC2)c2ccc(O)cc2)cc1C (stereo not drawn) do in these assays?
RE007 growth inh: -13.0%; StopGo reporter: 26.4%; Marburg entry inh: -21.9%[46.1 µM]; LASV entry inh: inconclusive; NS1 inh: -6.4%; SARS PLP yeast: 0.3%

Results for O=C(N/N=C/c1ccc(OCC(=O)N2CCCC2)cc1)C(=O)NC1CC1 ?
RE007 growth inh: 4.5%; StopGo reporter: -2.4%; NS1 inh: 6.4%; SARS PLP yeast: inconclusive

How did COc1ccc(-c2cc(=O)oc3c(C)c(OCC(=O)NCCCn4ccnc4)ccc23)cc1 do in these assays?
RE007 growth inh: 1.3%; StopGo reporter: -17.0%; NS1 inh: -11.4%; SARS PLP yeast: 8.2%

How did O=C(CCc1ccccc1)NNC(=O)c1ccccc1Br do in these assays?
Cruzain Triton: 0.8%; StopGo reporter: -21.5%; Marburg entry inh: inconclusive; LASV entry inh: 1.3%; NS1 inh: 7.2%; SARS PLP yeast: 6.2%; Cruzain noTriton: 1.0%

Results for COc1ccc(NC(=O)C2=C(C)Nc3nc(SC)nn3C2c2cc(OC)ccc2OC)cc1 (stereo not drawn) ?
Cruzain Triton: -0.3%; StopGo reporter: 1.8%; LASV entry inh: -10.0%[46.1 µM]; Cruzain noTriton: 15.4%

What do the screens show for `O=C1CC(c2ccco2)Cc2nc(Nc3ccc(F)cc3)ncc21` (stereo not drawn)?
RE007 growth inh: -20.7%; Cruzain Triton: -11.8%; StopGo reporter: -12.4%; Marburg entry inh: -1.1%; LASV entry inh: inconclusive; NS1 inh: -15.9%; SARS PLP yeast: -9.7%; Cruzain noTriton: -9.7%

How did CC(/C=N/n1c(-c2ccccn2)n[nH]c1=S)=C\c1ccccc1 do in these assays?
RE007 growth inh: 7.5%; StopGo reporter: -2.8%; Marburg entry inh: -11.4%[46.1 µM]; LASV entry inh: 3.4%[46.1 µM]; NS1 inh: 1.1%; SARS PLP yeast: 0.0%

Results for COc1ccc(OC)c(N(CC(=O)N2CCN(c3cc(Cl)ccc3C)CC2)S(C)(=O)=O)c1 ?
RE007 growth inh: 2.6%; Cruzain Triton: -1.8%; Marburg entry inh: inconclusive; LASV entry inh: inconclusive; NS1 inh: -11.4%; SARS PLP yeast: -4.6%; Cruzain noTriton: inconclusive

What do the screens show for `O=c1cc(NCc2ccc3c(c2)OCO3)[nH]c(=O)n1-c1ccc(Cl)cc1`?
RE007 growth inh: inconclusive; Cruzain Triton: 4.6%; StopGo reporter: -8.9%; Marburg entry inh: -3.4%; LASV entry inh: 2.6%; NS1 inh: 7.4%; SARS PLP yeast: 12.7%; Cruzain noTriton: inconclusive

Results for CC(C)CN(C(=O)CCCOc1ccc(Cl)cc1Cl)c1c(N)n(Cc2ccccc2)c(=O)[nH]c1=O ?
RE007 growth inh: 1.3%; StopGo reporter: -25.3%; Marburg entry inh: inconclusive; LASV entry inh: inconclusive; SARS PLP yeast: -2.0%

Results for CC(C)(C)c1ccc(C(=O)NCCC(=O)N2CCCC2)cc1 ?
RE007 growth inh: -25.1%; StopGo reporter: 32.9%[activator]; Marburg entry inh: inconclusive; LASV entry inh: inconclusive; NS1 inh: -18.5%; SARS PLP yeast: 7.8%

How did Cc1cccc(OCC(O)CN2CC3(C)CC2CC(C)(C)C3)c1 (stereo not drawn) do in these assays?
RE007 growth inh: -7.1%; Cruzain Triton: 0.1%; StopGo reporter: -3.1%; Marburg entry inh: inconclusive; LASV entry inh: inconclusive; NS1 inh: 4.2%; SARS PLP yeast: -2.2%; Cruzain noTriton: -6.0%

Results for COc1cc2cc(CN(C(=O)NC3CCCCC3)C3CCCC3)c(=O)[nH]c2cc1OC ?
RE007 growth inh: 15.0%; Cruzain Triton: -9.6%; StopGo reporter: 10.6%; Marburg entry inh: 6.5%; LASV entry inh: -2.1%; NS1 inh: -21.3%; SARS PLP yeast: 2.9%; Cruzain noTriton: -4.0%

How did C=C(C)Cn1c(N2CCCC2)nc2c1c(=O)n(C)c(=O)n2C do in these assays?
RE007 growth inh: 3.9%; StopGo reporter: 20.5%; Marburg entry inh: 7.2%[46.1 µM]; LASV entry inh: -1.0%[46.1 µM]; NS1 inh: 7.0%; SARS PLP yeast: 6.9%

How did O=C(O)c1cccc(NC(=O)c2cc(NC(=O)c3ccccc3)cc(NC(=O)c3ccccc3)c2)c1 do in these assays?
RE007 growth inh: 11.5%; StopGo reporter: 45.4%[activator]; Marburg entry inh: 8.0%[46.1 µM]; LASV entry inh: -11.0%[46.1 µM]; NS1 inh: 29.5%; SARS PLP yeast: 5.5%

Results for Cc1cc(C)cc(C(=O)NC(=S)Nc2cccnc2)c1 ?
RE007 growth inh: -13.4%; StopGo reporter: 3.9%; Marburg entry inh: 16.9%[46.1 µM]; LASV entry inh: inconclusive; NS1 inh: -4.8%; SARS PLP yeast: -4.7%

How did COc1ccc(C(=O)OCC(=O)c2ccc(S(=O)(=O)N3CCCCC3)cc2)c(OC)c1 do in these assays?
RE007 growth inh: 14.6%; StopGo reporter: inconclusive; Marburg entry inh: inconclusive; LASV entry inh: -11.3%; SARS PLP yeast: 2.5%

What do the screens show for `COc1cc(/C=N/N2C(=O)c3ccccc3NC2(C)c2cccc([N+](=O)[O-])c2)cc(Br)c1O` (stereo not drawn)?
RE007 growth inh: 21.0%; Cruzain Triton: -2.4%; StopGo reporter: -1.1%; Marburg entry inh: 16.7%; LASV entry inh: 10.8%; NS1 inh: 5.4%; SARS PLP yeast: -1.3%; Cruzain noTriton: inconclusive

What do the screens show for `Cc1c(NC(=O)CSc2ccc(Cl)cc2)c(=O)n(-c2ccccc2)n1C`?
RE007 growth inh: -6.9%; StopGo reporter: -9.3%; Marburg entry inh: 7.3%; LASV entry inh: -1.6%; SARS PLP yeast: -1.1%

Results for O=C(CCC1COc2ccccc2O1)NCC1COc2ccccc2O1 (stereo not drawn) ?
RE007 growth inh: -11.3%; Cruzain Triton: -5.0%; StopGo reporter: -12.0%; Marburg entry inh: 10.3%; LASV entry inh: 11.4%; NS1 inh: -44.9%; SARS PLP yeast: 0.2%; Cruzain noTriton: 14.8%

What do the screens show for `O=C(NC1=NN(c2ccccc2)CC1)Nc1ccccc1F`?
RE007 growth inh: -8.1%; StopGo reporter: -6.4%; NS1 inh: -34.4%; SARS PLP yeast: -2.5%

How did O=C(NC1(C(F)(F)F)NC(=O)N(CCc2ccccc2)C1=O)C1CC1 (stereo not drawn) do in these assays?
Cruzain Triton: -1.2%; StopGo reporter: -1.8%; Marburg entry inh: 32.5%; LASV entry inh: -16.3%; NS1 inh: 7.4%; SARS PLP yeast: 5.1%; Cruzain noTriton: -1.7%

How did Cc1csc2nc(COC(=O)c3ccc(NC(=O)C(C)Oc4ccccc4)cc3)cc(=O)n12 (stereo not drawn) do in these assays?
Cruzain Triton: -3.9%; StopGo reporter: -18.2%; LASV entry inh: inconclusive; Cruzain noTriton: 0.7%

How did CC(C(=O)NCC1CCCCC1)N(C)Cc1cccc(Cl)c1 (stereo not drawn) do in these assays?
RE007 growth inh: 2.3%; StopGo reporter: -27.7%; NS1 inh: -3.3%; SARS PLP yeast: 0.6%

What do the screens show for `c1cncc(CNc2nc(-c3cccnc3)nc3ccccc23)c1`?
RE007 growth inh: 4.7%; Cruzain Triton: -3.0%; StopGo reporter: -16.7%&-17.9%; Marburg entry inh: -4.2%&-4.2%[46.1 µM]; LASV entry inh: inconclusive; NS1 inh: -3.0%; SARS PLP yeast: 0.8%; Cruzain noTriton: 3.6%

What do the screens show for `CSc1ccc(S(=O)(=O)NCCSC(C)(C)C)cc1`?
RE007 growth inh: -7.5%; Cruzain Triton: -3.8%; StopGo reporter: 25.7%; Marburg entry inh: -21.6%; LASV entry inh: -13.3%; NS1 inh: -0.3%; SARS PLP yeast: 2.6%; Cruzain noTriton: -2.4%
